# Assay outcomes (PubChem)
# YopH inh: YopH (Yersinia) phosphatase inhibition; hit rate 0.16% among 140,000; AID 898; fluorescence Ex485/Em525; inhibition, %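 (about 10 µM by stock and volumes)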;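 active = inhibition of 50% or more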;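 note: controls were vehicle for no effect and minimum signal wells for full effect; inactives centre near -20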
# RecA splice inh: Mtb RecA intein splicing inhibition. cell-free RecA intein splicing, fluorescence. inhibition, %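 (about 9 µM by stock and volumes)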. hit rate 0.75% among 290,000; in the data active = inhibition above about 30%;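 note: 0% = vehicle wells and 100% = reference inhibitor control wells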
# Target sequence (P9WHJ3 whole entry, looked up, canonical isoform): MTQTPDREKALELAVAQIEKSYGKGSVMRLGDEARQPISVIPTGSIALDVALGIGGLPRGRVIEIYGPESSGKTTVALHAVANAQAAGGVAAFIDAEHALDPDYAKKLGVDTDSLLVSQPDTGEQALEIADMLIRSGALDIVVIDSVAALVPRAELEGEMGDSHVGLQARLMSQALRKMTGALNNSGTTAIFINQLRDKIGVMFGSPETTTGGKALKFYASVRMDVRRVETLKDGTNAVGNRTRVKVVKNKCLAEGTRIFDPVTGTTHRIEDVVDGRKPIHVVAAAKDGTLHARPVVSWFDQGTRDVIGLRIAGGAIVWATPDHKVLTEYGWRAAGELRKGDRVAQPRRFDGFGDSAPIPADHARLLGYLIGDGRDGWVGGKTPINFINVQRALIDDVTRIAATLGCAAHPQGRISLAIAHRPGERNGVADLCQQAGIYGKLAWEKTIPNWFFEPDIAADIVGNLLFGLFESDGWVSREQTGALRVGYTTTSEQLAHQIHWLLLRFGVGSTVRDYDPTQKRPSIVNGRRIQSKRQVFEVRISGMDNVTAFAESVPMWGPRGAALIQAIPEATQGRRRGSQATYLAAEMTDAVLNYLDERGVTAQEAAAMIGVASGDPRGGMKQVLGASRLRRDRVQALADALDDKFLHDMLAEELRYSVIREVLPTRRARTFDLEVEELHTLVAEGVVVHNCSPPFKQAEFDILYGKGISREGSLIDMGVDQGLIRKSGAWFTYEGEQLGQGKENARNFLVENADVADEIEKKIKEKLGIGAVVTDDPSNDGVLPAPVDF
# Mtb growth: M. tuberculosis H37Rv growth inhibitors, H37Rv strain (AID 1626). M. tuberculosis H37Rv growth inhibition; higher % means a stronger effect. inhibition, % at 10 µM; hits with a dose series show IC50 in µM. hit rate 0.95% among 220,000;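 active = confirmed in a dose series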;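 note: bacteria incubated seven days before Alamar blue readout; 0% = bacteria only wells and 100% = bacteria with antibiotic wells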
# Arbovirus anti: antivirals against arbovirus infection; hit rate 0.37% among 200,000; inhibition, % at 10 µM; AID 1251; arbovirus infection cell-based antiviral screen;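 active = inhibition from about 30%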;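 note: bluetongue infection of BSR cells; cell survival read as ATP light after 72 h; 0% = infected wells without compound and 100% = uninfected wells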
# Mtb betalactam: beta-lactam sensitization of Mtb H37Rv; inhibition, % at 25 µM; AID 434955; hit rate 0.27% among 330,000; M. tuberculosis H37Rv growth with meropenem, percent inhibition; hits of this screen are not shown here;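 active = about 74% or more and at least 40 points above the plate without the antibiotic, then above 30% in a dose series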;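 note: growth measured after seven days incubation then overnight dye step; 0% = bacteria only wells and 100% = bacteria with antibiotic; twin plates without the antibiotic show which effects depend on it; some results filed as inactive read as strong as hits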
# Arbovirus anti repeat: recorded beside Arbovirus anti, whose call it bears; inhibition, %; measured here: 10K subset replicate screen; many hits read low in the repeat;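 first of two repeat runs on a subset; 0% = infected and 100% = uninfected wells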
# * marks the source's active call; other numbers are inactive results; . = no result given.
SMILES,YopH inh,RecA splice inh,Mtb growth,Arbovirus anti,Mtb betalactam,others
COCCNC(=O)C(=O)NCCN1CCOCC1,-61,-1.0,-6%,6,-17,
O=C1C=C(NCc2ccco2)CCC1,-25,-4.9,-10%,9,5,
CC(=O)c1cn(Cc2ccc(C#N)cc2)c2ccccc12,.,6.6,5%,0,6,
CCc1nnc(NS(=O)(=O)c2ccc(NC(=O)OC)cc2)s1,-25,-1.3,-5%,2,-2,
C(=N\Nc1ccccn1)/c1ccc2c(c1)OCCO2,.,0.6,-4%,-15,3,
COc1ccc(C)cc1NC(=O)c1cc2cc3ccc(C)cc3nc2o1,-40,.,-14%,10,.,
O=C(CSc1nnc(CNC(=O)c2cccs2)o1)Nc1cccc(C(F)(F)F)c1,29,0.8,-7%,-1,-7,
O=C1CCCN1C(=O)COc1ccc([N+](=O)[O-])cc1,.,0.0,.,.,-12,
COc1ccc(/C=C2/SC(=O)N(CCNC(=O)C3COc4ccccc4O3)C2=O)cc1 (stereo not given),-4,-1.3,3%,4,-1,
CC1(c2ccccc2Cl)NC(=O)N(CC(=O)NC(=O)NCc2ccco2)C1=O (stereo not given),-46,1.7,-5%,-5,-8,
CN(C(=O)Cc1c(C(=O)O)n(C)c2ccccc12)c1ccc(F)cc1,.,-3.5,1%,6,-2,
COc1cccc(C2CC(c3cccs3)=NN2C(=S)Nc2ccccc2)c1OC (stereo not given),-40,2.2,3%,1,10,
CCN(CC)CCNC(=O)CCc1nnc2ccc(N3CCC(C)CC3)nn12,.,-0.4,.,.,-4,
CCC(CC)c1nnc(NC(=O)CN2C(=O)c3ccccc3C2=O)s1,.,1.6,0%,2,10,
Cc1ccccc1/C=N/NC(=O)Cn1cnc([N+](=O)[O-])n1,-15,-1.2,-5%,4,-3,
O=C1C2C3C=CC(C3)C2C(=O)N1Nc1ccc([N+](=O)[O-])cc1[N+](=O)[O-] (stereo not given),.,-3.7,.,.,-2,
COc1ccc(-c2cc(=O)oc3cc4occ(C)c4cc23)cc1,-19,1.0,7%,-24,15,
CSc1ncccc1C(=O)OCC(=O)c1cccc(Br)c1,.,8.4,9%,0,-9,
O=C1OC(c2ccco2)=N/C1=C\c1ccc(-c2cccc(C(F)(F)F)c2)o1,-21,7.1,-2%,-3,.,
Cc1cc(NC(=O)c2ccc(Cl)cc2)ccc1NC(=O)c1ccccc1Cl,.,1.3,.,.,34,
CN(CCc1nc2ccccc2[nH]1)Cc1nc(CC2CC2)no1,.,.,1%,-2,7,
Cc1ccc(NC(=O)CSc2nc3ccccc3c(=O)n2CCCC(=O)NCCCN2CCOCC2)cc1,.,0.8,-4%,-6,5,
COCCN1C(=O)N[C@@H](CCc2ccccc2)[C@H](C(=O)OC)[C@H]1C,.,-3.8,-6%,.,-6,
O=C(N[C@@H](Cc1ccccc1)C(=O)OCc1ccccc1)c1nc[nH]c1C(=O)N1CCN(c2ccccc2)CC1,.,9.4,-2%,.,97,
COc1ccc(C(=O)NCC(=O)NCC(c2ccco2)N(C)C)cc1OC (stereo not given),1,-5.0,-5%,5,-4,

# Later entries.
SMILES,YopH inh,RecA splice inh,Mtb growth,Arbovirus anti,Mtb betalactam,others
O=C(Nc1ccc(N2CCCC2)cc1)c1ccccc1F,10,-5.7,12%,-12,14,
C=CCc1ccc(OCCCCNC2CCCC2)c(OC)c1,.,-1.3,5%,-11,-1,
O=C(CSc1nnnn1-c1ccc(O)cc1)c1ccc(F)cc1,.,-1.0,-2%,.,1,
CCOC(=O)c1c(C)sc(Sc2ccc(Cl)cc2[N+](=O)[O-])c1OC,-16,-1.9,6%,-2,-5,
Cc1cccn2cc(-c3cccc(S(=O)(=O)N4CC(C)OC(C)C4)c3)nc12 (stereo not given),.,-1.0,.,.,7,
CCC1CCCCN1S(=O)(=O)c1ccc(NC(=O)C2CCN(C(=O)c3ccco3)CC2)cc1 (stereo not given),.,2.3,.,.,7,
CC(=O)COc1cc(C)cc2oc(=O)c(C)c(C)c12,-3,-1.1,-5%,-8,5,
N#CCC(=O)Nc1ccc(C(=O)NCCc2c[nH]c3ccccc23)cc1,.,0.7,.,.,6,
COc1ccc(SCCC(=O)NCc2ccncc2)cc1,.,0.9,-7%,.,5,
Cc1ccc(OCc2nc(C#N)c(NCCCn3ccnc3)o2)cc1,-32,2.3,-7%,-5,-8,
c1ccc2c(c1)NC1(CCCC1)n1c-2nc2ccccc21,-43,.,-2%,11,-3,
COc1ccc(CNC(=O)CN(c2ccc(OC)cc2)S(=O)(=O)c2c(C)nn(C)c2C)cc1,-28,0.0,1%,5,2,
Cc1nc(NC2=NCN(CCCN3CCOCC3)CN2)nc2c(C)cccc12,-27,.,.,-38,4,
CCCc1nc2c(c(=O)c3ccccc3n2C)c(=O)n1C1CCCCCC1,-23,-1.9,6%,-33,0,
CCN(CC)S(=O)(=O)c1cccc(NC(=O)COC(=O)c2cccs2)c1,.,-3.2,4%,3,-6,
Cc1cccc(-n2c(C)nc3ccccc3c2=O)c1C,.,0.8,-1%,-8,-8,
Cc1ccc(Nc2nc(C)cc(C)c2C(N)=O)c(C)c1,.,-2.4,.,.,-3,
COCCN(Cc1nc(C(c2ccccc2)c2ccccc2)no1)C(C)C,.,2.9,.,.,-4,
CCOc1ccc(NC(=O)CCSc2ccc3ccccc3n2)cc1,-39,5.9,6.5µM*,-6,99,
CCn1c(SCC(=O)C(C)(C)C)nnc1-c1cnccn1,-16,0.0,1%,3,-1,
COc1ccc(/C=N/Nc2nc(Nc3ccccc3)nc(N3CCCCC3)n2)cc1OC,-32,-3.2,25%,-13,96,
CN1CCN(c2ccc(NC(=S)NC(=O)c3cccc4c(Br)cccc34)cc2)CC1,.,1.5,.,.,6,
O=C(O)COc1ccc(/C=C/C(=O)c2ccc(C3CCCCC3)cc2)cc1,.,25,.,.,2,
O=C(Cc1ccccc1)Nc1cccc([N+](=O)[O-])c1,.,-0.6,-3%,-3,-3,
CCOC(=O)NC1(C(F)(F)F)NC(=O)N(Cc2ccco2)C1=O (stereo not given),-38,2.9,2%,9,-16,

# (continued)
SMILES,YopH inh,RecA splice inh,Mtb growth,Arbovirus anti,Mtb betalactam,others
COc1ccc(C(=O)Nc2cccc([N+](=O)[O-])c2)cc1Br,2,-2.0,-1%,.,9,
CC1CCCC(NC(=O)C2CCN(S(=O)(=O)N3CCOCC3)CC2)C1C (stereo not given),-23,0.3,-2%,6,-12,
COc1ccc(C(=O)NCC23C=CC(O2)C2C(=O)N(Cc4ccccc4)C(=O)C23)cc1 (stereo not given),-42,0.1,-8%,7,5,Arbovirus anti repeat=-1
O=C(NCCCN1CCOCC1)c1cc2c(s1)CSC2,-52,15,-9%,5,-5,
COc1ccc2c(CSc3nc4nc(C)cc(C)n4n3)cc(=O)oc2c1,-29,0.3,53%,9,-4,
COc1ccc(C2=NN(c3nc4ccccc4s3)C(=O)C2)cc1,.,-4.4,-2%,-12,-4,
CCOc1ccccc1N1C(=O)NC(=O)/C(=C/c2ccc3c4c(cccc24)CC3)C1=O,-28,1.8,3%,-3,-2,
O=S(=O)(Nc1cccc(-c2ccc(N3CCCCCC3)nn2)c1)c1ccccc1F,.,-2.3,.,.,7,
CCCn1c(=O)c(C(=O)OCC)c(O)c2cc(Br)ccc21,.,-2.5,-12%,19,-3,
COc1cc(OC)cc(C(=O)NCC(=O)N2CCN(c3ccc(O)cc3)CC2)c1,.,-2.5,.,.,-3,
COc1ccccc1C(=O)NC(=S)Nc1ccccc1N1CCCCC1,.,6.1,.,.,10,
COc1ccc(NC(=O)COC(=O)Cn2nnc3ccccc32)cc1,.,-0.2,-1%,6,-5,
O=C(O)COc1ccc(Br)cc1/C=C1/SC(=O)N(CC(=O)N2CCCC2)C1=O,-24,0.9,-15%,7,-3,
CN(C)C(=O)c1ccc(NC(=O)COC(=O)C2=COCCO2)cc1,.,-2.1,.,.,0,
Cc1ccc2c(c1)N(S(=O)(=O)c1ccc(F)cc1)C(C(C)(C)C)CO2 (stereo not given),-40,11,-9%,-9,-8,
O=C(CCN1C(=O)c2ccccc2C1=O)Nc1ccc2c(c1)OCCO2,-32,-2.6,4%,9,-5,
COc1cc2c(cc1OC)CN(CC(=O)Nc1ccc(F)cc1F)CC2,.,-0.1,.,.,4,
COc1cccc(-c2ocnc2C(=O)Nc2ccc(N3CCOCC3)cc2N2CCOCC2)c1,.,3.9,.,.,6,
Cc1cc(OCc2cc(C(=O)N3CCN(C)C(=O)[C@@H]3C)no2)cc(C)c1Cl,.,-0.6,.,.,4,
N/C(=N\OC(=O)CCCOc1ccccc1)c1ccc([N+](=O)[O-])cc1,.,0.3,0%,0,0,
CC(C)Oc1ccc(CNC(=O)CC(c2ccccc2)c2cc(Cl)ccc2O)cc1 (stereo not given),-7,9.5,9%,-30,3,
Cc1ccc2nc(N(CCCN(C)C)C(=O)c3ccc(Br)s3)sc2c1,.,-2.7,1%,-7,-6,
O=S(=O)([N-]c1nc2ccccc2nc1-[n+]1ccccc1)c1ccc(Cl)cc1,-23,2.9,-4%,2,4,
COCc1cc(C)n(CC(=O)NCc2ccccc2)c(=O)c1C#N,.,0.3,4%,21,-2,
CCOc1ccc(C(C)=O)cc1COC(=O)c1cnc(Cl)c(Cl)c1,.,1.0,10%,10,0,

# (continued)
SMILES,YopH inh,RecA splice inh,Mtb growth,Arbovirus anti,Mtb betalactam,others
COc1cccc(C(=O)NCC2(c3ccccc3)CCCC2)c1,.,2.2,-16%,5,-3,
CC(NC(=O)OCc1ccccc1)C(=O)N1CC(O)CC1C(=O)O (stereo not given),-42,-0.9,-3%,-2,.,
COc1ccc(NS(=O)(=O)c2cccc3nonc23)c(OC)c1,-26,-5.2,-4%,-1,-1,
COCCn1c(=S)[nH]c2sc3c(c2c1=O)CCCC3,.,-4.1,.,.,-2,
c1ccc(-n2nnc3cnccc32)cc1,-33,-0.8,0%,-2,-5,
COc1ccccc1N(CC(=O)NC(C)(C)C)C(=O)C1CSC(=O)C1 (stereo not given),-18,2.4,-3%,0,3,
Cc1cc(C)c(OCC(=O)Nc2ccc(S(=O)(=O)N3CCCC3)cc2)c(C)c1,.,3.4,.,.,-17,
N#CCc1nc2ccccc2c(=O)[nH]1,.,-2.3,-7%,.,-7,
COc1ccc(S(=O)(=O)NC(N)=NCCc2ccccc2OC)cc1,.,4.6,3%,7,-1,
c1ccc(OCCCc2nc(-c3ccncc3)no2)cc1,32,1.1,12%,2,-2,
CCn1c(-c2cc(Br)ccc2O)n[nH]c1=S,-28,-2.6,-3%,6,7,Arbovirus anti repeat=-1
CCOC(=O)/C(C#N)=N\Nc1cc(Cl)ccc1OC,.,-1.9,3%,.,-5,
C1=C(CCNCC2CC2)CCCC1,-16,1.4,0%,4,0,
S=C(Nc1cccc(Cl)c1)N1CCOCC1,-29,-1.6,-5%,0,-6,
CN(CCc1ccccc1)C1CCCN(S(=O)(=O)CC(F)(F)F)C1 (stereo not given),.,2.0,.,.,-5,
Cc1ccc(SCC(=O)OCn2nnc3ccccc3c2=O)cc1C,-7,12,0%,3,0,
S=c1[nH]nc(Cc2noc3ccccc23)n1-c1ccccc1,.,-2.0,0%,9,-5,
CC(C)CN1C(=O)c2ccc(NC(=O)c3ccccc3F)cc2C1=O,-21,1.3,-6%,5,13,
CCC(C)(C)NC(=O)C(c1cccc(OC)c1OC)N(CCOC)C(=O)CCC(=O)Nc1cc(C)on1 (stereo not given),.,2.2,.,.,-5,
O=C(C1CC(=O)N(c2ccc(Cl)cc2)C1)N1CCN(Cc2ccc3c(c2)OCO3)CC1 (stereo not given),.,-1.0,.,.,-8,
CCOC(=O)c1sc(N2C(=O)C(O)=C(C(=O)c3ccco3)C2c2ccco2)nc1C (stereo not given),.,-1.5,.,.,5,
O=C(NCCc1cccs1)c1ccc(Cl)cc1,.,0.3,11%,.,5,
O=C(CSc1ncn[nH]1)Nc1cccc2ccccc12,-33,4.4,-8%,8,.,
NC(=O)c1cccn(Cc2ccc(C(F)(F)F)cc2)c1=O,.,-1.0,1%,10,-1,
CCc1ccc2c(c1)c(N=NC1=NC(=O)CS1)c(O)n2C,23,1.9,.,5,96,

# Of the compounds above, 8 contain an NH in an aromatic ring:
SMILES,YopH inh,RecA splice inh,Mtb growth,Arbovirus anti,Mtb betalactam,others
CN(CCc1nc2ccccc2[nH]1)Cc1nc(CC2CC2)no1,.,.,1%,-2,7,
O=C(N[C@@H](Cc1ccccc1)C(=O)OCc1ccccc1)c1nc[nH]c1C(=O)N1CCN(c2ccccc2)CC1,.,9.4,-2%,.,97,
N#CCC(=O)Nc1ccc(C(=O)NCCc2c[nH]c3ccccc23)cc1,.,0.7,.,.,6,
COCCn1c(=S)[nH]c2sc3c(c2c1=O)CCCC3,.,-4.1,.,.,-2,
N#CCc1nc2ccccc2c(=O)[nH]1,.,-2.3,-7%,.,-7,
CCn1c(-c2cc(Br)ccc2O)n[nH]c1=S,-28,-2.6,-3%,6,7,Arbovirus anti repeat=-1
S=c1[nH]nc(Cc2noc3ccccc23)n1-c1ccccc1,.,-2.0,0%,9,-5,
O=C(CSc1ncn[nH]1)Nc1cccc2ccccc12,-33,4.4,-8%,8,.,

# An excerpt, so the mix of outcomes need not match the whole.
